Rango dissoc inh = qHTS Assay for Inhibitors of RanGTP induced Rango (Ran-regulated importin-beta cargo) - Importin beta complex dissociation; Snurportin-1 (Homo sapiens) + GTP-binding nuclear protein Ran (Homo sapiens) + Importin …; Biochemical FRET Rango-importin beta, RanGTP-induced dissociation; Potency, µM (top dose mostly 46.1 µM), for inactives: at the highest dose activity change, negative = inhibition; 340,000 tested, 0.071% active; AID 540253, 2011; active means falling FRET ratio curve, often poorly fitted, with flat reads before Ran was added; inconclusive means other falling curves, or compound fluorescence or quenching; inactive means flat or rising ratio curve;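 also: potency is read from the fitted curve at half-maximal effect; % of control where 0% means no effect; nearly all actives have a fitted effect of over 45% in size; -100% = wells without RanGTP and RCC1; the record marks most hits as doubtful in a second field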
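Quantitative HTS using a FRET biosensor: 0.1 uM Rango, 0.25 uM importin beta, 0.6 uM Ran, 2 mM GTP, 0.2 uM RCC1 final, PBS with DTT, Tween-20 and BSA. Post-read taken 45 min after Ran addition.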
miR-21 reporter = qHTS Assay for Modulators of miRNAs and/orActivators of miR-21; 340,000 tested, under 10 active; Potency, µM (top dose mostly 38.3 µM), without a hit: top-dose reporter change, positive = more light; HeLa miR-21 FLuc reporter, luciferase, 48 h; AID 2288, 2010; active = well fitted rising curve with a large enough effect; inconclusive = small, poorly fitted or top-dose-only effect; inactive = no such curve, though single readings can be large or run the other way;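 also: % of control where 0% means no effect; miR-21 action dims this reporter so a rising signal means less miR-21 action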
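HeLa miR-21-FLuc reporter line, endogenous miR-21; 2000 cells/well in DMEM/10% FBS; compound titration up to ~40uM final, 48 h, 37 degree Celsius; luciferase detection reagent, 15 min lysis, CCD luminescence.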
GLA inh pH 4.5 = qHTS Assay for Inhibitors of Human alpha-Galactosidase at pH 4.5; purified enzyme, 4-MU-alpha-Gal fluorescence, pH 4.5; activity change, negative = inhibition, % at 105 µM; 230,000 tested, under 10 active; AID 1467, 2008; inconclusive = small, poorly fitted or top-dose-only inhibition, or a rising curve; inactive = flat fitted curve, though single readings scatter; no compound was filed as active;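 also: 0% = full activity with enzyme and -100% = basal without enzyme; dose as in the result columns while the protocol names 77 µM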
Target sequence (P06280 whole entry, looked up): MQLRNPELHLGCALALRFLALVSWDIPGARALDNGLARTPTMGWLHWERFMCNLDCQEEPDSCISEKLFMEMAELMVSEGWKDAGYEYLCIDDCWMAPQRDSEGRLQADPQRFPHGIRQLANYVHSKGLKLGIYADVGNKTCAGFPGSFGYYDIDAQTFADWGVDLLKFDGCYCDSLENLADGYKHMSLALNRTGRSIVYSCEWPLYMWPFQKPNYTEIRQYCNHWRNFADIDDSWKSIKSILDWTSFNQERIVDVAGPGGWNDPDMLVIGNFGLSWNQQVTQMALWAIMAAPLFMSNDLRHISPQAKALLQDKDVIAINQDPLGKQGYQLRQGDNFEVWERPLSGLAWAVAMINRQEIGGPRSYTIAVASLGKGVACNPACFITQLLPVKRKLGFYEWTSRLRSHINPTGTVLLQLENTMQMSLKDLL
Rango complex inh = qHTS Assay for Inhibitors of Rango (Ran-regulated importin-beta cargo) - Importin beta complex formation; Importin subunit beta-1 (Homo sapiens), Q14974; Rango CFP/YFP FRET sensor + importin beta, 45 min; Potency, µM (titrated, usually from 92.2 µM), without a hit: at the highest dose inhibition of complex formation; 340,000 tested, 0.031% active; AID 540263, 2011; active = rising FRET ratio curve, often small or poorly fitted; inconclusive = mostly compound fluorescence or quenching in the first reads; inactive = flat curves in all reads;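 also: potency is read from the fitted curve at half-maximal effect; 0% = DMSO wells and 100% = buffer wells lacking importin beta; nearly all actives have a fitted effect of over 15% in size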
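FRET biosensor Rango (snurportin 1 IBB between N-terminal EYFP and C-terminal Cerulean), 50 nM in PBS/1 mM DTT/0.02% Tween-20/0.1% BSA, preincubated 5 min RT with compound; 0.125 microM importin beta added, 45 min RT, CFP/YFP FRET ratio read.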
* = called active by the depositor; ? = inconclusive; / = no result given. These rows are one share of the data; the hit share may differ from the screen's.

SMILES	Rango dissoc inh	miR-21 reporter	GLA inh pH 4.5	Rango complex inh
N#CCOc1ccccc1CNC[C@H]1O[C@@H](n2cnc(C(N)=O)n2)[C@H](O)[C@@H]1O	12%	/	/	-0.5%
CCOc1ccc(N=C2C(=O)N(CN3CCOCC3)c3ccccc32)cc1	5%	-9%	-4	-6.3%
Cc1nnc(SCc2ccc(C(=O)Nc3cc(Cl)ccc3C)cc2)s1	-7%	-41%	-14	0.4%
COC(=O)c1[nH]c(C)c(/C(O)=C2\C(=O)C(=O)N(CCN(C)C)C2c2ccc(OC)cc2)c1C (centres undefined)	/	-2%	3	/
O=C(c1ccc2c(=O)n3c(nc2c1)CCC3)N1CCN(S(=O)(=O)c2cccc(F)c2)CC1	1%	/	/	?
Cc1cccc2cc(CN(Cc3nnnn3C3CCCC3)C3CCCCC3)c(=O)[nH]c12	-7%	/	/	-1.3%
CC(C(=O)Nc1ccccc1F)N1C(=O)c2ccccc2C1=O (centres undefined)	11%	-1%	1	3.5%
O=C(NCCN1CCOCC1)c1cccs1	20%	-1%	-5	2.7%
COc1cc(S(=O)(=O)NCC2CCCO2)c(OC)cc1Cl (centres undefined)	-3%	-4%	-8	1.0%
Cc1ccc(C)c(C(=O)CN2C3=NCCCN3c3ccccc32)c1	-16%	9%	8	-0.9%
O=C(CSc1nnc2ccccn12)Nc1ccccc1C(=O)O	21%	-4%	1	2.4%
CCCCC(O)(CCCC)C(=O)NN(C(=O)OC)c1ccc(C)cc1	11%	8%	-7	0.0%

Pulled one by one from above (3):
SMILES	Rango dissoc inh	miR-21 reporter	GLA inh pH 4.5	Rango complex inh
Cc1cccc2cc(CN(Cc3nnnn3C3CCCC3)C3CCCCC3)c(=O)[nH]c12	-7%	/	/	-1.3%
CC(C(=O)Nc1ccccc1F)N1C(=O)c2ccccc2C1=O (centres undefined)	11%	-1%	1	3.5%
CCOc1ccc(N=C2C(=O)N(CN3CCOCC3)c3ccccc32)cc1	5%	-9%	-4	-6.3%

The results go on.
SMILES	Rango dissoc inh	miR-21 reporter	GLA inh pH 4.5	Rango complex inh
COc1ccc(NC(=S)N2CCc3cc(OC)c(OC)cc3C2)cc1	5%	-5%	-24	?
COc1ccc([C@@H]2CC=C(C(=O)O)[C@H](c3ccc(Cl)cc3)N2S(=O)(=O)c2ccccc2C)cc1	0%	/	/	5.6%
Cc1cc(C(=O)COC(=O)c2ccc[nH]c2=O)c(C)n1-c1ccc(Br)cc1	-4%	-10%	4	0.3%
COc1cc(OC)cc(OC(=O)c2cccc(S(=O)(=O)N3CCN(C)CC3)c2)c1	16%	/	/	3.9%
O=C(NC1CCSc2ccccc21)c1c(F)cccc1Cl (centres undefined)	-11%	-4%	/	-3.4%
CCOC(=O)c1ccccc1NS(=O)(=O)c1ccc(S(=O)(=O)N2CCCC2)cc1	2%	-1%	3	0.1%
CCOc1ccc(NC(=O)C(C)NS(=O)(=O)c2ccc(NC(C)=O)cc2)cc1 (centres undefined)	2%	-1%	-1	7.5%
Cc1ccc(SCC(=O)OC(C)C(=O)NC2CCCCC2C)c(C)c1 (centres undefined)	0%	/	/	1.8%
COc1ccccc1CCNC(=O)c1cc(-c2ccncc2)nc2ccc(Br)cc12	1%	-1%	3	0.8%
CC(=O)N1CCN(C(=O)CCCNC(=O)c2ccc(Cl)cc2)CC1	-11%	/	/	3.4%
N#Cc1nc(-c2ccco2)oc1N1CCCC1	-8%	-5%	2	1.6%
COc1ccc(CC(=O)OCC(=O)c2ccc(OC)c(OC)c2)cc1	21%	/	/	-3.9%
O=C1N[C@@H](Cc2ccccc2)COC(=O)[C@@H](Cc2ccc(F)cc2)CC/C=C/C[C@@H]1CC(=O)N(CCO)Cc1ccccc1	2%	/	/	5.1%
CC(C)(C)c1ccc(C(=O)NCCC(=O)NC2=NCCS2)cc1	19%	/	/	0.0%
O=C(O)CC1Cc2ccccc2C1C(=O)O (centres undefined)	7%	/	/	3.4%
Cc1ccc(C)c(NC(=O)NNC(=O)c2cc3occc3[nH]2)c1	4%	0%	/	-0.2%
O=C(O)c1cnn(-c2nc(-c3ccc(F)cc3)cs2)c1C(F)(F)F	-5%	-62%	-3	0.0%
NC1=NC(c2cn[nH]c2-c2cccc(F)c2)n2c(nc3ccccc32)N1 (centres undefined)	-1%	1%	-3	7.0%
C=CCn1c(SCC(=O)N2CCOCC2)nc2sc(C)c(C)c2c1=O	-2%	-2%	/	-1.5%
CSc1ccccc1NC(=S)Nc1cccc(C(F)(F)F)c1	4%	1%	0	2.3%
CCOC(=O)c1[nH]c(C)c(C(=O)OC)c1C	1%	-27%	-9	-2.1%
CC(=O)N(/N=C1\Sc2ccccc2C1=O)c1ccccc1C	8.2µM*	-48%	2	?
O=C(NN1CCCCC1)c1cnn2c(C(F)F)cc(-c3ccccc3)nc12	-9%	-7%	3	?
CCc1ccc(S(=O)(=O)c2n[nH]n3c2nc(=O)c2ccccc23)cc1	-7%	-1%	-4	-5.6%
COc1ccc(NC(=O)CCN2CC(C)OC(C)C2)c(OC)c1 (centres undefined)	17%	1%	7	5.2%
CSc1cccc(NC(=O)c2cccc3cccnc23)c1	-4%	-52%	/	-3.3%
Cc1cc(=O)[nH]c(SCC(=O)Nc2ccc(Cl)cn2)n1	4%	-1%	1	4.9%
O=C(COC(=O)/C=C/c1ccc(Cl)cc1)Nc1ccccc1-c1ccccc1	7%	-1%	7	-1.1%
Cc1ccc(NS(=O)(=O)c2ccc3c(c2)CC(=O)N3)cc1F	5%	/	/	-2.3%
Cc1ccc(CN(CC(=O)NC2CCCCC2)C(=O)c2csnn2)cc1	6%	6%	/	-0.1%
Cc1c(C(=O)OCC(=O)N2CC(=O)Nc3ccccc32)oc2ccc(Br)cc12	0%	2%	1	-0.2%
OC[C@@H](O)[C@@H](O)[C@H](O)[C@H](O)CO	8%	/	/	4.4%
CCCC(C)NC(=O)c1ccc2[nH]c3c(c2c1)CC(C)CC3 (centres undefined)	8%	-26%	1	0.3%
CCCCCc1nc2sc3c(c2c(=O)n1NC(=O)c1ccc([N+](=O)[O-])cc1)CC(C)(C)OC3	3%	19%	-3	-5.4%
O=C1CCCC(O)=C1N=Nc1ccc(C(=O)O)cc1	-23%	1%	0	?
COc1cc2c(cc1OC)C(c1ccc(Br)cc1)NCC2 (centres undefined)	1%	/	/	0.0%
CCCCS(=O)(=O)N1CCC(C(=O)Oc2ccc(Cl)cc2)CC1	-5%	0%	/	3.3%
O=C(c1cc2c(s1)-c1ccccc1OC2)N1CCN(c2ccccn2)CC1	-12%	1%	-11	-0.8%
COc1ccccc1OC(=O)c1ccc(S(=O)(=O)N(C)C)cc1	20%	0%	0	0.9%
COc1ccc(-n2cc(C(=O)O)c3ccccc3c2=O)cc1	-4%	-7%	-2	2.9%
Cc1cc2cc(CN(Cc3ccc4c(c3)OCO4)C(=O)c3cnccn3)c3nnnn3c2cc1C	-14%	-3%	2	-1.1%
CCOc1ccc(-n2ccnc(SCC(=O)NCc3cccc(OC)c3)c2=O)cc1	-5%	/	/	-0.4%
CCc1cccc(NC(=O)CCCN2C(=O)NC(C)(C)C2=O)c1	5%	/	/	0.3%
Cc1ccc(OCc2nnc(SCC(N)=O)n2N)cc1	-4%	-1%	-7	-2.3%
Cn1c(=O)c2ccccc2n2c(=S)[nH]nc12	-15%	9%	/	-1.3%
c1ccc(Nc2nc(-c3ccccn3)cs2)cc1	24%	-35%	-8	4.6%
CN(C)c1cc(-c2ccc(Br)cc2)oc(=O)c1Cl	10%	-18%	-1	0.8%
O=C(Nc1ccc2nc(-c3cccnc3)[nH]c2c1)C12CC3CC(CC(C3)C1)C2	-2%	-31%	3	-0.1%

Some of the entries so far, field by field:
c1ccc(Nc2nc(-c3ccccn3)cs2)cc1
  Rango dissoc inh: 24%
  miR-21 reporter: -35%
  GLA inh pH 4.5: -8
  Rango complex inh: 4.6%

CN(C)c1cc(-c2ccc(Br)cc2)oc(=O)c1Cl
  Rango dissoc inh: 10%
  miR-21 reporter: -18%
  GLA inh pH 4.5: -1
  Rango complex inh: 0.8%

More records.
SMILES	Rango dissoc inh	miR-21 reporter	GLA inh pH 4.5	Rango complex inh
CCCn1[nH]cc(SC)c(=O)c1=O	7%	1%	7	?
Cc1csc(NC(=O)/C=C/c2ccco2)n1	-14%	-9%	8	-0.2%
O=C(CCS(=O)(=O)c1cccc2nonc12)NCCc1ccccc1	-3%	-6%	-2	-2.4%
O=C(Nc1sc2c(c1C(=O)NC1CCCCC1)CCC2)c1ccco1	-16%	-8%	6	-8.8%
CC(=O)Nc1ccc2c(c1)N(C(C)=O)c1ccccc1CC2	6%	-10%	-10	3.8%
Cc1cc(NCc2ccccc2)nc2ccccc12	-1%	-16%	-2	-0.4%
c1ccc2c(c1)ncn2CCCOc1ccc2c(c1)CCC2	-5%	-23%	-1	0.4%
COC(=O)c1c(NC(=O)CSc2nnc(-c3cccnc3)n2Cc2ccco2)sc(C)c1C	9%	-2%	-3	-5.6%
O=C1CN(C(=O)c2ccccc2F)c2ccccc2N1	-4%	-7%	-5	7.3%
CCOc1ccc(S(=O)(=O)N(C)c2ccc(OCC(=O)NCc3ccco3)cc2)cc1	2%	-4%	-20	-5.8%
O=C(Cn1cnc2ccccc2c1=O)Nc1ccc2c(c1)CCC2	1%	-9%	1	-0.7%
COc1cccc(C2c3[nH]c4ccccc4c3C[C@H]3C(=O)N(c4ccccc4C(=O)N4CCCC4C(=O)O)C(=O)N23)c1 (some centres undefined)	?	1%	/	?
COC(=O)c1ccc(Oc2nc(Nc3ccc(C)c(C)c3)nc(N(C)C)n2)cc1	-8%	12%	-5	-5.9%
O=C(Cc1ccccc1[N+](=O)[O-])NCCCN1CCOCC1	25%	-3%	/	2.2%
Cc1c(C#N)c(NC(=O)C(C)C)n(Cc2ccccc2)c1C	-2%	-1%	8	3.8%
CCc1ccc2oc(=O)cc(CN3CCN(Cc4ccccc4)CC3)c2c1	-3%	-5%	/	5.1%
Cc1ccc(S(=O)(=O)N2CCN(C(=O)Cc3sc(C)nc3-c3ccc(F)cc3)CC2)c(C)c1	-5%	/	/	-1.9%
Cc1ccc(NC(=O)c2cc(S(=O)(=O)N3CCOCC3)cn2C)cc1Cl	11%	-2%	/	0.4%
COc1ccc(CCNC(=O)CN(c2ccccc2OC)S(C)(=O)=O)cc1OC	-11%	-3%	9	?
O/N=C(\Cc1cscn1)c1ccc(O)cc1O	1%	-24%	10	-3.6%
COCCCNc1ncnc2c1nc1n2CCCC1	-11%	1%	/	-4.0%
CCOC(=O)c1ccc(CN2Cc3ccccc3C2=O)cc1	2%	-10%	/	-0.9%
Cc1csc(NC(=O)C2CCCCC2C(=O)O)n1 (centres undefined)	-1%	1%	3	-5.8%
O=C(CCc1ccccc1)NCC1OCCc2ccccc21 (centres undefined)	0%	-11%	7	4.1%
CCn1c(=O)c2cc(C(=O)NCc3cccs3)sc2c2ccccc21	-11%	1%	14	4.6%
Cc1ccc(S(=O)(=O)NCCc2nnc3ccc(NCCCOC(C)C)nn23)cc1	-21%	3%	2	2.4%
C/C(=N/NC(=O)CNC(=O)/C=C/c1ccccc1)c1ccco1	?	-6%	/	-2.8%
NC(=O)c1cn(-c2ccccc2)nc1-c1cccnc1	10%	-4%	-3	-2.4%
COC(=O)[C@H](CCSC)NC(=O)Nc1ccc(S(N)(=O)=O)cc1	18%	3%	-3	2.0%
COc1ccccc1N(CC(=O)N1CCCCCC1)S(=O)(=O)c1ccc(C)cc1	0%	6%	/	-0.2%
O=[N+]([O-])c1ccccc1Nc1ccccc1	-3%	0%	7	-3.7%
Cc1ccc(S(=O)(=O)Nc2ccc3ccccc3n2)cc1	14%	-2%	-1	-0.5%
CCCCn1c(-c2cccc(Br)c2)nc2cc3[nH]c(=O)c(C(C)C)nc3cc21	-20%	8%	/	?
O=c1cc(CN2CCOCC2)nc(C2CC2)[nH]1	4%	-8%	-1	-3.4%
COc1ccc(NC(=S)NC2CCN(Cc3ccccc3)CC2)cc1OC	11%	-1%	-13	9.5%
Cc1csc(NC(=O)c2nc(-c3ccccc3)n(-c3ccccc3)n2)n1	5%	10%	0	2.8%
